Screens: PubChem, several laboratories
PABP polyA inh: blocks human PABP binding to poly(A) RNA; inhibition, % at 35 µM; fluorescence polarization; 290,000 tested, 1% active;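 active = 50% or more with normal probe brightness, or confirmed in later tests; inconclusive = above 50% with abnormal brightness, or retests that disagree; inactive = below 50% or failed in later tests; about a fifth of its hits are not listed in these tables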;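 also: calls also rest on retests at 20 µM and on dose response follow-up; controls were probe without protein and protein plus probe with vehicle; some compounds called inactive have numbers as strong as hits; many hits fall short of the cut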
Target sequence (P11940 whole entry, looked up): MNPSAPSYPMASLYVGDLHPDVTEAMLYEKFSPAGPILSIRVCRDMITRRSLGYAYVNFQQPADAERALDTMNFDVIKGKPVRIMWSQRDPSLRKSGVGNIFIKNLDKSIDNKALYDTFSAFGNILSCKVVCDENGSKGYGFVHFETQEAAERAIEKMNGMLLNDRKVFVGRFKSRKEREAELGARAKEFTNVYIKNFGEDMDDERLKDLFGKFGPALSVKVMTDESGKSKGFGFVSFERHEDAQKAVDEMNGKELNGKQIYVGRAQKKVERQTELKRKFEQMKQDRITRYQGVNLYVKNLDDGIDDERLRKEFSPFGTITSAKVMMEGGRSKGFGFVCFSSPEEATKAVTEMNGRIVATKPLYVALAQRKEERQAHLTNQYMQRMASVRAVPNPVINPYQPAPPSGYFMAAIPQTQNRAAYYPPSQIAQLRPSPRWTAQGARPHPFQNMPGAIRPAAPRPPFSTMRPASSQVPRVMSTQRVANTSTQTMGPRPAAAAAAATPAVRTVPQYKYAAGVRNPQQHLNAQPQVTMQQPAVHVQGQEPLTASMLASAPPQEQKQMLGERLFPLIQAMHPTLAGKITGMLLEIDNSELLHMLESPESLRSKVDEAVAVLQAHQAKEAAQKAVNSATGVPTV
Rce1 inh: inhibitors of yeast Ras-converting enzyme; yeast membranes, quenched prenylated peptide cleavage fluorescence; 290,000 tested, 0.27% active; calls only;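 active = fall in fluorescence gain of 50% or more versus controls, with final raw signal at or below 3038400; inconclusive = same 50% fall but final raw signal above 3038400; inactive = fall in fluorescence gain under 50%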;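 also: plate controls were neutral control wells for no effect and wells lacking membranes for full effect; tested at 10 µM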
Target sequence (Q03530 whole entry, looked up): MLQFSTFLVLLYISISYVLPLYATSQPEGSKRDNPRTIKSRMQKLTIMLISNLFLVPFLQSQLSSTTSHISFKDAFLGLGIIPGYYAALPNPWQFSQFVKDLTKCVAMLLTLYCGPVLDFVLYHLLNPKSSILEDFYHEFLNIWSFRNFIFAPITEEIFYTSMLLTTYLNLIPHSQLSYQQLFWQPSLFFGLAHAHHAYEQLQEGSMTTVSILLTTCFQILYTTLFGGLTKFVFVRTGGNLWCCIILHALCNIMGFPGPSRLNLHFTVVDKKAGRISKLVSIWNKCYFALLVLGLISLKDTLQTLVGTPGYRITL
eIF4H FP inh: inhibitors of RNA binding by human eIF4H; eIF4H fluorescence polarization binding assay; inhibition, % at 35 µM; 290,000 tested, 0.94% active; Q15056; AID 2012;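 active = 50% or more with normal probe brightness, or confirmed in later tests; inconclusive = above 50% with abnormal brightness, or retests that disagree; inactive = below 50% or failed in later tests; about a fifth of its hits are not listed in these tables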;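 also: calls also rest on retests at 20 µM and on dose response follow-up; 0% = protein and probe with vehicle and 100% = probe without protein; strong numbers were not always called active; many hits fall short of the cut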
MT1-MMP act inh: blocks activation of human MT1-MMP | P50281 | HT1080 RFP-PRO-GFP cells, GFP/RFP ratio fluorescence, overnight; percent of plate control window, DMSO zero | GFP/RFP ratio change, % at 20 µM | 360,000 tested, 0.061% active;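 active = GFP/RFP ratio change of at least 30% with cell ATP level not reduced by more than half and red fluorescence within 50% of control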; also: strong numbers were not always called active
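Material: RFP-PRO-GFP reporter HT1080 cells. Dosing: single-point 20 µM compound, 1% DMSO. Controls: DMSO and RFP-L50D-GFP cell wells. Timing: cells overnight before dosing, compound overnight, 37 °C, 5% CO2. Measure: GFP/RFP fluorescence ratio.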
Yeast UUG start: alters start codon recognition fidelity in yeast | S. cerevisiae UUG-firefly luciferase reporter, luminescence/redox ratio | 350,000 tested, 0.13% active | activity score, % at 18.7 µM | AID 602363;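 active = replicate mean at a twofold rise or more, about +100% in these data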;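 also: firefly luciferase made from a UUG start codon reports start codon fidelity; reporter light over untreated wells divided by growth signal over untreated wells; some hits fall short of that in this replicate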
Env fusion inh: blocks HIV Env-driven cell-cell fusion | 360,000 tested, 1.1% active | HeLa-JRFL Env/CEM21 cell fusion, luciferase | AID 651610 | inhibition, % at 12.3 µM;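 active = mean replicate inhibition score of at least 50 and every replicate individually at or above 50; inconclusive = only one of the two criteria met; inactive = mean below 50 and not all replicates reaching 50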;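 also: 0% = plate neutral controls and 100% = maraviroc near 300 nM; one replicate is shown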
CSC inhib: cancer stem cell inhibition | cancer stem cell-like cells viability, luminescence | inhibition, % at 7.5 µM | 300,000 tested, 1.1% active | AID 2717;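 active = mean at 75% or more and at least half the replicates too; inconclusive = mean and replicates disagree; tested in HMLE shEcad cells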;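 also: 0% = median of negative and 100% = median of positive control wells; the first replicate is given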
eIF4H FP inh retest: further read-out of eIF4H FP inh, marked with its call; inhibition, %; compound at 20 µM; confirmation average;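 mean of two retest wells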
PABP polyA inh retest: second read-out of PABP polyA inh, no call of its own (marks repeat the call); inhibition, %; compound at 20 µM; confirmation repeats;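 mean of two retest wells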
MT1-MMP act inh RFP: recorded beside MT1-MMP act inh, whose call it bears; RFP signal change, %; measured here: RFP expression control read;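 0 = vehicle wells; hits needed this value within 50% of zero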
* = called active by the depositor; i = inactive; ? = inconclusive; . = not tested or not shown; & = joins results of further samples. Not all compounds are listed, so the mix of outcomes need not match the whole.

SMILES	PABP polyA inh	Rce1 inh	eIF4H FP inh	MT1-MMP act inh	MT1-MMP act inh RFP	Yeast UUG start	Env fusion inh	CSC inhib	others
CCCCCC1CC(CC(=O)Nc2nncs2)C(=O)O1 (stereo not drawn)	1	i	4	0	-4	-11	-43	-2
S=c1[nH]nc(C2CCCCC2)n1/N=C/c1ccc(Br)s1	1	i	-21	-3	-9	7	-36	5
CCCn1c(SCC(=O)Nc2cccc(S(=O)(=O)N3CCCC3)c2)n[nH]c1=O	-19	i	-2	-5	-2	.	5	-9
Cc1ccc(-c2nc(COC(=O)c3c(C)noc3C)cs2)cc1	2	i	0	-1	-18	-21	45	7
Cc1ccc(NC(=O)COc2ccccc2)cc1Cl	4	i	2	-3	1	-3	.	3
CCOC(=O)c1cccc(-c2c(-c3ccccc3)ncc3cc(OC)c(OC)cc23)c1	.	.	.	-8	-6	-15	-36	38
CC1CCCC(NC(=O)COC(=O)c2sc3ccccc3c2Cl)C1C (stereo not drawn)	29	i	3	-2	2	-12	.	-1
Nc1nnc(SCC(=O)NC2CCCCC2)n1-c1ccccc1	2	i	0	7	3	-26	-226	-20
CCc1nn2c(=O)cc(COC(=O)c3ccc(SC)cc3OC)nc2s1	.	.	.	0	-5	1	.	-20
O=C(CNC(=O)c1cccc(Cl)c1)NCC(c1cccs1)N1CCOCC1 (stereo not drawn)	.	.	.	0	1	-10	-59	-15
COC(=O)c1ccc(CSc2ccc3nnc(-c4ccccc4)n3n2)o1	6	i	-3	-5	3	-12	.	-3
O=C1CC(C(=O)Nc2ccc(Cl)cc2)n2ncnc2N1 (stereo not drawn)	-13	i	-15	-1	3	.	-13	-2
O=S(=O)(Nc1ccc(N=Nc2ccccc2)cc1)c1ccccc1	-8	i	51	10	-1	.	.	.	eIF4H FP inh retest=-10;PABP polyA inh retest=4
CC1(C)Cc2c(c(N3CCOCC3)nc3sc(C(=O)Nc4ccccc4)c(N)c23)CO1	14	i	-9	-6	-1	7	-55	-3
O=C(c1ccc(OC2CCN(Cc3ccccn3)CC2)cc1)N1CCCCCC1	6	i	2	3	5	-5	5	-14

For convenience, some entries already given.
SMILES	PABP polyA inh	Rce1 inh	eIF4H FP inh	MT1-MMP act inh	MT1-MMP act inh RFP	Yeast UUG start	Env fusion inh	CSC inhib	others
CC1(C)Cc2c(c(N3CCOCC3)nc3sc(C(=O)Nc4ccccc4)c(N)c23)CO1	14	i	-9	-6	-1	7	-55	-3
O=C(c1ccc(OC2CCN(Cc3ccccn3)CC2)cc1)N1CCCCCC1	6	i	2	3	5	-5	5	-14

(more compounds)
SMILES	PABP polyA inh	Rce1 inh	eIF4H FP inh	MT1-MMP act inh	MT1-MMP act inh RFP	Yeast UUG start	Env fusion inh	CSC inhib	others
Cc1ccc(/C=C/C(=O)Nc2sc(C)c(C)c2C(=O)OC(C)C)o1	-1	i	14	-8	3	-7	-5	-11
COc1ccc(NS(=O)(=O)c2cccc(C(=O)NCC(c3ccco3)N3CCCCC3)c2)cc1 (stereo not drawn)	.	i	.	-2	2	-8	.	-2
COc1ccc(C(=O)N(Cc2nc(-c3ccc(C)cc3)no2)C(C)C)cc1OC	-11	i	0	-1	0	-1	11	-1
O=C(Nc1ccc(N2CCOCC2)cc1)c1cccc(S(=O)(=O)N2CCCCCC2)c1	-1	i	-9	2	-4	-4	0	4
Cc1cccc(OCC(=O)Nc2cc(S(=O)(=O)N3CCCCC3)ccc2N2CCN(C)CC2)c1	-6	i	2	-4	-4	.	21	1
COC(=O)c1sc2ccccc2c1-n1cccc1C(=O)C(=O)Nc1ccc(C)cc1	8	i	-5	-1	-4	-8	.	31
COc1ccc(N(CC(=O)Nc2ccc3c(c2)OCO3)S(=O)(=O)c2ccccc2)cc1OC	1	i	-7	0	1	-21	13	1
COc1cccc(N(CC(=O)NC2CCCCC2)C(=O)CCC(=O)Nc2nccs2)c1	14	i	-4	0	0	-3	9	-12
CN(C)CCNC(=O)c1ccc2c(c1)NC(=O)c1ccccc1S2	21	i	27	3	0	-21	7	-8
Cc1nccc2[nH]c(=O)c(C(=O)NC(C)CCc3ccccc3)cc12 (stereo not drawn)	8	i	-3	.	.	.	.	44
C(CCCN1CCCCC1)CCN1CCCCC1	.	i	.	2	0	-5	11	-6
O=C(C1=C(O)C(=O)N(CCN2CCOCC2)C1c1cccc([N+](=O)[O-])c1)c1cccs1 (stereo not drawn)	20	i	-2	2	-1	.	32	-13
CCC1CCCCN1CCCNC(=O)CNC(=O)c1nn(-c2ccc(OC)c(Cl)c2)c(=O)c2ccccc12 (stereo not drawn)	-12	i	0	2	2	7	-6	1
COC(=O)COc1ccc(C2NC(=O)NC(C)=C2C(=O)NCc2ccccc2)cc1OC (stereo not drawn)	-4	i	3	-1	1	-8	-5	6
CN1CCN(C(=O)c2ccc(-n3cccn3)nc2)CC1	-8	i	-3	4	2	.	10	-15
CCOc1cc2[nH]c(=S)n(Cc3ccc(C(=O)O)cc3)c(=O)c2cc1OCC	7	i	0	4	7	-19	-10	1
COc1ccc(/C=N/NC(=O)c2cc(OC)c(OC)c(OC)c2)cc1CN1CCc2cc(OC)c(OC)cc2C1C (stereo not drawn)	-8	i	-2	-7	-8	.	-2	.
CCCCN(CC)CCNC(=O)Cn1cnc2sc(C)c(S(=O)(=O)N3CCOCC3)c2c1=O	0	i	5	2	3	-4	11	-13
C=CCNC(=O)C1CC(=O)N(c2ccc(OCC(=O)N3CCCC3)cc2)C1 (stereo not drawn)	-4	i	2	1	1	-16	0	-9
Cc1ccccc1NC(=O)Cn1nnc2ccccc21	11	i	-1	-2	-2	.	-10	-13
CCOC(=O)c1c(C)[nH]c(C(=O)COC(=O)c2[nH]c(C)c(C(C)=O)c2C)c1C	-3	i	-1	3	-1	-17	7	0
CC(CN1CCCCC1)OC(=O)COc1ccc(Br)cc1 (stereo not drawn)	-1	i	-3	-3	2	0	-8	-4
O=C(CCC1CCCN(Cc2ccc3c(c2)CCO3)C1)NCc1ccc(F)c(F)c1 (stereo not drawn)	-6	i	-2	0	1	-7	29	-2
CCCCNC(=O)COC(=O)c1cc(S(=O)(=O)N2CCCCCC2)ccc1OC	-4	i	-6	-3	0	27	.	-8
Cc1cc(C(=O)NNC(=O)c2cccc(Cl)c2)no1	-9	i	0	2	-2	-11	-2	10
Cc1nc(N)[nH]c(=O)c1CCCNc1ccc(CCC2(CCl)OCCO2)cc1	.	.	.	3	-4	-4	-24	.
O=CNCCc1nc2ccccc2n1CCc1ccccc1	14	i	6	0	0	-12	0	-25
CCCCOc1ccc(-c2nnn(CC(=O)Nc3ncc(CC(=O)OCC)s3)n2)cc1	4	i	7	2	1	-12	.	0
CC[C@]12c3[nH]c4ccccc4c3CCN1C(=O)C(CC(=O)NCc1cccc(C(F)(F)F)c1)C[C@@H]2C(=O)N1CCN(C(=O)c2ccco2)CC1 (stereo partly drawn)	.	.	.	-2	-8	15	-94	2
Cc1ccc(CN2C(=O)C(CC(C)C)Nc3ncnc(N4CCN(c5ccccc5)CC4)c32)cc1 (stereo not drawn)	.	.	.	-13&-19	-7&-16	-10&-2	-12	.

5 structures out of the list, sorted by number of heavy atoms, ascending:
SMILES	PABP polyA inh	Rce1 inh	eIF4H FP inh	MT1-MMP act inh	MT1-MMP act inh RFP	Yeast UUG start	Env fusion inh	CSC inhib	others
CC(CN1CCCCC1)OC(=O)COc1ccc(Br)cc1 (stereo not drawn)	-1	i	-3	-3	2	0	-8	-4
C=CCNC(=O)C1CC(=O)N(c2ccc(OCC(=O)N3CCCC3)cc2)C1 (stereo not drawn)	-4	i	2	1	1	-16	0	-9
CCOC(=O)c1c(C)[nH]c(C(=O)COC(=O)c2[nH]c(C)c(C(C)=O)c2C)c1C	-3	i	-1	3	-1	-17	7	0
CCCCNC(=O)COC(=O)c1cc(S(=O)(=O)N2CCCCCC2)ccc1OC	-4	i	-6	-3	0	27	.	-8
CCCCN(CC)CCNC(=O)Cn1cnc2sc(C)c(S(=O)(=O)N3CCOCC3)c2c1=O	0	i	5	2	3	-4	11	-13

(listing goes on)
SMILES	PABP polyA inh	Rce1 inh	eIF4H FP inh	MT1-MMP act inh	MT1-MMP act inh RFP	Yeast UUG start	Env fusion inh	CSC inhib	others
COc1ccc(NC(=O)CS(=O)c2ccc(Br)cc2)cc1 (stereo not drawn)	2	i	19	-2	1	-8	2	-9
CC1(c2ccc3c(c2)OCCO3)NC(=O)N(CC(=O)Nc2ccccc2SCC#N)C1=O (stereo not drawn)	.	.	.	-23	7	-4	-16	-4
Cc1ccc(S(=O)(=O)c2c(N)n(NC(=O)c3ccccc3C)c3nc4ccccc4nc23)cc1	0	i	14	-1	0	2	?	3
CC1=C(C(=O)Nc2ccccc2)C(c2ccncc2)n2nnnc2N1 (stereo not drawn)	.	i	.	-1	4	-19	-58	5
CC(C)(C)NC(=O)c1cccc(NC(=O)CSc2ccc(Cl)cc2)c1	-19	i	-3	-6	-8	-2	.	-7
Cn1c(SCCS(=O)(=O)c2ccc(Cl)cc2)nnc1-c1ccccc1	-3	i	-6	-4	1	-9	.	6
CC(CCc1ccc(O)cc1)NCCC(c1ccccc1)c1ccccc1 (stereo not drawn)	-4	i	-2	1	-5	-5	-85	-17
CCOC(=O)c1ccc(NC(=O)CC2S/C(=N/N=C/c3c[nH]c4ccccc34)NC2=O)cc1 (stereo not drawn)	26	i	-8	-1	-5	.	-5	88*
COc1ccc(Oc2nccc(OC)c2C#N)cc1	-13	i	1	2	1	-6	.	6
CCOc1cc(/C=C2\SC(=Nc3ccccc3)N(c3ccccc3)C2=O)ccc1OCC(=O)O	-4	i	-3	-2	-1	.	-6	-1
Cc1cc(C)n2cc(CSc3ncn[nH]3)nc2n1	-7	i	5	-3	1	-18	-2	-11
COC(=O)/C(=N/Nc1ccccc1OC)N1CCCc2ccccc21	0	i	3	-1	-3	.	14	9
NC(=O)COc1ccc2oc(-c3ccccc3)cc(=O)c2c1	-3	i	-4	-4	-3	1	-38	.
Oc1ccccc1-c1nc(NCCN2CCOCC2)c2ccccc2n1	-10	.	-8	8	-4	4	7	25
C#CCOCCOCCOCCNc1nc(N2CCN(C(=O)C([C@@H](C)O)n3cc([C@@H](N)CCCCN)nn3)CC2)nc(N2CCN(C(=O)[C@H](CO)n3cc([C@@H](N)C(C)C)nn3)CC2)n1 (stereo partly drawn)	.	.	.	6	7	21	-22	.
COc1ccc(S(=O)(=O)n2nc(-n3c(C)ccc3C)c3c(F)cccc32)cc1OC	7	i	-6	-2	-14	-5	37	31
Cc1ccc2c(C(=O)N3CCN(c4ccccc4)CC3)cc(-c3cccnc3)nc2c1C	1	i	8	-10	-7	.	0	9
